Screening results from PubChem BioAssay.
NPY2 pot ag: NPY-Y2 potentiators or agonists, primary screen, cell-based; activation, % at 3.6 µM; AID 1359, 2008; cells expressing NPY-Y2, potentiator/agonist read-out; actives 0.45% (n = 220,000); Neuropeptide Y receptor type 2 (Homo sapiens), P49146; in the data active = activation above about 27%;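 note: cells stimulated with NPY near EC25 plus isoproterenol at EC100; 0% = vehicle plus submaximal agonist and 100% = vehicle plus saturating agonist; some results beyond the cut were filed as inactive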
Target sequence (P49146 whole entry, looked up): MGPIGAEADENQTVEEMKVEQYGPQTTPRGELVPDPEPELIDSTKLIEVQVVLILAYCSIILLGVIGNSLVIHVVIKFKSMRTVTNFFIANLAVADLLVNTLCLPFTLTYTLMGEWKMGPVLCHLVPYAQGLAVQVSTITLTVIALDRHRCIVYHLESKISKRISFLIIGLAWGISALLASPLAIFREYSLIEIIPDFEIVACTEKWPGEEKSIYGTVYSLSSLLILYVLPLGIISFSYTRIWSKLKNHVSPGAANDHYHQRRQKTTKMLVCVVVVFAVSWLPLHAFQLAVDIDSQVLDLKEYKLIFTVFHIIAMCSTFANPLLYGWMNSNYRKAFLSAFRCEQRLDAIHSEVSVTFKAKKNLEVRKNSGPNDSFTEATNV
S1P4 antag: S1P4 receptor antagonists, primary screen, cell-based; Sphingosine 1-phosphate receptor 4 (Homo sapiens), O95977; S1P4-expressing cells, antagonist mode, reporter read-out; inhibition, % at 4.98 µM; actives 0.26% (n = 220,000); in the data active = inhibition above about 29%;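 note: 0% = wells stimulated with agonist and 100% = vehicle wells without agonist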
RBBP9 inh: human RBBP9 inhibitors, primary screen, biochemical, fluorescence polarization, FP-Rh probe, HTS; recombinant RBBP9; inhibition, % at 7.94 µM; actives 0.2% (n = 220,000); AID 1515, 2009;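 active = inhibition above the campaign mean of all tested compounds plus 3 SD, cut at about 14% in these data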;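 note: plate controls were DMSO wells with RBBP9 for no effect and wells lacking RBBP9 protein for full effect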
Target sequence (O75884 whole entry, looked up): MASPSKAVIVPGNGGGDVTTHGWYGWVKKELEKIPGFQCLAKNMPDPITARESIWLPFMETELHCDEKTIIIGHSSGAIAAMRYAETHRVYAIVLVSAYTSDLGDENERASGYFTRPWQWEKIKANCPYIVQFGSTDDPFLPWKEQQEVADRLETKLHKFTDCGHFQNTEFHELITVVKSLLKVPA
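Test system – recombinant human RBBP9 · Input – RBBP9 2.5 µM in dispensing solution, pre-mixing · Medium – Tris buffer pH 8.0, NaCl, Pluronic · Schedule – preincubation 30 min plus labeling 45 min at 25 °C · Measured by – fluorescence polarization · Measure – % inhibition · Controls – DMSO and no-protein wells · Replicates – one well per compound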
NPY1 pot ag: NPY-Y1 receptor potentiators or agonists, primary screen, cell-based; activation, % at 3.6 µM; Neuropeptide Y receptor type 1 (Homo sapiens), P25929; actives 0.37% (n = 220,000); NPY-Y1 expressing cells, potentiator/agonist activation; in the data active = activation above about 33%, passing the limit was not always enough;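 note: cells stimulated with NPY at EC10 then isoproterenol at EC100; 0% = low agonist plus stimulus and 100% = saturating agonist plus stimulus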
Target sequence (P25929 whole entry, looked up): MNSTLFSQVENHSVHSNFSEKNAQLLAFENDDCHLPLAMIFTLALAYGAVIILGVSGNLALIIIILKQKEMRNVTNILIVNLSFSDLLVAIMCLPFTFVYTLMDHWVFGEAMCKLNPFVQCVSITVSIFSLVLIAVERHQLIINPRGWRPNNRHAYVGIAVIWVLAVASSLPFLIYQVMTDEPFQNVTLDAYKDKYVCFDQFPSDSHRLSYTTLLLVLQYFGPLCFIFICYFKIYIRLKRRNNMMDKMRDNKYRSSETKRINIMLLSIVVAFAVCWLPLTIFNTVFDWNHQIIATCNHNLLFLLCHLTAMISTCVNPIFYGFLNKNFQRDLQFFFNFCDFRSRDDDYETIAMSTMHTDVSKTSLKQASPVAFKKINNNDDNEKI
BaF3 parental: parental Ba/F3 cell viability inhibition, counter-screen for JAK2V617F inhibitor project, murine pro-B, CellTiter-Glo luminescence | CellTiter-Glo ATP luminescence | inhibition, % at 5.6 µM | actives 1.1% (n = 220,000) | AID 1486, 2009;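 active = inhibition above a per-campaign cutoff, the mean inhibition of all tested compounds plus 3 SD, cut at about 27% in these data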;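 note: 0% = DMSO wells and 100% = JAK Inhibitor I control wells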
Ba/F3 V617F tox: reduced viability of JAK2V617F-dependent Ba/F3 cells, primary screen, JAK2V617F inhibitor project, cell-based, Ba/F3 EpoR-JAK2V617F, luminescence | ATP luminescence | AID 1446, 2008 | inhibition, % at 5.6 µM | actives 1.1% (n = 220,000);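 active = inhibition above the campaign mean plus 3 SD over all tested compounds, cut at about 24% in these data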;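 note: cytokine-independent growth of Ba/F3 cells driven by EpoR plus mutant JAK2; 0% = DMSO-treated cells and 100% = JAK inhibitor I control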
S1P4 agonist: S1P4 receptor agonists, primary screen, cell-based; Sphingosine 1-phosphate receptor 4 (Homo sapiens), O95977; activation, % at 4.98 µM; actives 0.35% (n = 220,000); AID 1509, 2009; S1P4-expressing cell line, agonist reporter assay; in the data active = activation above about 11%;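 note: 0% = DMSO vehicle and 100% = reference agonist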
NPY-Y1 antag: NPY-Y1 receptor antagonists, primary screen, cell-based. actives 1% (n = 200,000). inhibition, % at 3.6 µM. AID 1040, 2008. Neuropeptide Y receptor type 1 (Homo sapiens), P25929. HEK293-CNG Y1 cells, membrane potential fluorescence; NPY at EC95, then isoproterenol;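 active = inhibition above the campaign mean inhibition of all tested compounds plus 3 SD, cut at about 20% in these data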;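 note: 0% = DMSO wells given NPY plus isoproterenol and 100% = isoproterenol alone without NPY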
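Test system – HEK293 Y1/CNG channel cell line · Also added – NPY agonist 25 nM, then isoproterenol 1 µM plus Ro 20-1724 25 µM · Compound dosing – one concentration, 3.6 µM, in 0.4% DMSO · Schedule – compound incubation 1 h at room temperature, readout 45 min post-stimulation · Technique – fluorescence, membrane potential probe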
* hit, by the source's call. An excerpt (hit frequency here may not be typical).

SMILES	NPY2 pot ag	S1P4 antag	RBBP9 inh	NPY1 pot ag	BaF3 parental	Ba/F3 V617F tox	S1P4 agonist	NPY-Y1 antag
CN1CC(c2ccccc2Cl)C2(COc3ccccc3C2=O)C12C(=O)Nc1ccccc12 (configuration not stated)	13	8	-7	34	7	6	-1.4	-8
CC(=O)NCCc1cc2cc(C)c(C)cc2[nH]c1=O	3	13	-5	0	1	0	-1.3	-1
COc1ccc(C(C(=O)NC(C)(C)C)N(C(=O)CNC(=O)c2cccs2)c2ccc(C(C)C)cc2)cc1OC (configuration not stated)	13	-60	-8	-17	3	8	-4.4	-2
Cc1cc(C)c2c(N)c(C(=O)c3ccccc3)oc2n1	-6	-19	-8	-5	1	-1	2.6	1
CCNC(=S)NNC(=O)c1cccn(Cc2ccc(Cl)cc2Cl)c1=O	4	-12	11	8	6	-2	0.0	6
CCOC(=O)c1cncc(C(=O)O)c1	-13	-2	-1	2	11	5	-1.0	-2
Cc1sc(NC(=O)C2CCCCC2C(=O)O)c(C(N)=O)c1-c1ccc(C(C)(C)C)cc1 (configuration not stated)	2	-2	-2	1	1	-2	-1.2	5
CCOC(=O)CN1NC2(CCC(C(C)(C)C)CC2)NC1=S (configuration not stated)	-29	-5	-6	-9	6	3	0.6	11
CC1CC(C)CN(Cc2nc(N)nc(Nc3ccccc3)n2)C1 (configuration not stated)	-7	4	-1	3	5	0	-1.9	4
Cc1sc2c(c1C)c(=O)n(-c1ccccc1)c1nnc(C)n21	-7	-11	-10	-4	0	0	-1.8	1
COc1ccc(N(C)C(=O)c2ccc3nc(-c4ccccc4)c(-c4ccccc4)nc3c2)cc1	-6	-7	-5	-21	4	3	-0.8	4
NS(=O)(=O)c1ccc(NC(=O)c2ccccc2C(=O)N2CCCCC2)cc1	6	-19	-2	4	6	0	1.0	-4
O=C(/C=C1\NCC2c3ccccc3CCN2C1=O)c1ccccc1 (configuration not stated)	-9	7	3	6	0	-2	-0.4	-1
CCC(C)C1NC(=S)N(Cc2ccccc2)C1=O (configuration not stated)	-4	4	-5	-3	3	2	-0.6	6
N#CC1=C(N)SC(N)=C(C#N)C1c1cccc(O)c1	1	-3	-8	16	-2	-3	0.1	4
CCCCNC(=O)COC(=O)c1cc(F)c(F)cc1Cl	-1	-10	-6	23	6	-1	-0.9	-4
CCOC(=O)c1c(C)n(C)c2ccc(OC)c(NC(=O)CN3CCN(C(=O)c4ccco4)CC3)c12	-3	-18	2	3	5	3	-1.3	-1
COc1ccc(C(=O)NC(NC(=S)Nc2ccc(S(N)(=O)=O)cc2)C(Cl)(Cl)Cl)cc1 (configuration not stated)	-15	6	-46	-31	8	3	0.1	6
COc1ccc(OCC(=O)Nc2cc(OC)cc(OC)c2)cc1	4	-6	-8	-4	7	-3	0.2	2
C/C(CC1CC2=C(CC1(C)C)C(C)(C)CCC2)=N\NC(N)=S (configuration not stated)	-4	12	-7	-22	6	3	2.0	12
CCn1c(-c2cccnc2)n[nH]c1=S	5	-23	-10	14	4	-1	3.1	-3
COc1cccc(C(=O)N/N=C/c2cn[nH]c2-c2ccc(OC)cc2OC)c1	0	3	0	-17	6	-2	-1.1	4
O=C(/C=C/c1ccc(-c2ccccc2[N+](=O)[O-])o1)c1ccc(F)cc1	12	10	1	6	3	2	-0.7	1
CCC(C)(C(=O)NC1CCCCC1)N(Cc1ccco1)C(=O)Cc1cccs1 (configuration not stated)	-43	0	-14	-36	2	1	-0.5	72*
Cc1cc(OCn2ccc(C(=O)O)n2)ccc1Cl	-12	8	2	-31	8	2	-2.1	-4

Limited to S1P4 agonist and S1P4 antag, for some of the entries so far:
| SMILES | S1P4 agonist | S1P4 antag |
| --- | --- | --- |
| O=C(/C=C1\NCC2c3ccccc3CCN2C1=O)c1ccccc1 (configuration not stated) | -0.4 | 7 |
| COc1ccc(C(=O)NC(NC(=S)Nc2ccc(S(N)(=O)=O)cc2)C(Cl)(Cl)Cl)cc1 (configuration not stated) | 0.1 | 6 |

(list continues)
SMILES	NPY2 pot ag	S1P4 antag	RBBP9 inh	NPY1 pot ag	BaF3 parental	Ba/F3 V617F tox	S1P4 agonist	NPY-Y1 antag
Cc1ccccc1-c1noc(-c2ccc(Cl)cc2)n1	-25	4	7	-18	7	3	-1.3	10
Cc1cc(NC(=O)c2cccc(F)c2)no1	1	4	-7	21	2	2	-0.1	1
Oc1ccc2ccccc2c1CNc1cnc2ccccc2c1	-4	-2	2	14	3	1	-1.9	9
CC(NC(=O)c1cc2ccccc2o1)C(=O)O (configuration not stated)	-13	7	-4	-10	4	3	1.7	4
CC(=O)Nc1ccc(S(=O)(=O)N2CCN(c3nc(NC4CCCC4)c4ccccc4n3)CC2)cc1	32*	-5	-18	-1	16	2	1.8	13
CCOc1ccc(NC(=O)C(C)Oc2ccccc2C(=O)Nc2cccc(Cl)c2Cl)cc1 (configuration not stated)	-2	6	-9	-3	8	20	-0.2	5
COc1ccccc1OC(C)c1nnc(SCC(=O)Nc2c(C)n(C)n(-c3ccccc3)c2=O)n1-c1ccccc1 (configuration not stated)	-7	-8	-3	5	5	3	-0.1	2
N#Cc1ccc(-c2ccc(F)cc2)nc1Sc1ccc(F)cc1	-4	-26	-4	-34	1	-2	0.1	3
O=c1[nH][nH]c(C(F)(F)F)c1C=Nc1ccc(Cl)cc1	-1	-28	0	3	0	-4	-0.1	-4
Cc1cc(=O)oc(C)c1C(=O)N1CCCc2ccccc21	-22	-24	-1	-3	3	4	-1.5	2
CCS(=O)(=O)N1CCC(C(=O)NCCc2ccccc2)CC1	-3	-19	-7	0	-1	-3	1.9	-2
CC(=O)Nc1c(NCC(C)C)c2ccccc2oc1=O	-1	-27	-7	10	5	-3	0.8	-2
Cc1cc(C)c2c(c1)[C@@H]1C=CC[C@@H]1[C@H](c1ccc(S(=O)(=O)N3CCOCC3)cc1)N2	0	-14	-1	-4	5	0	3.8	6
Oc1ccc(/C=N/NC(=S)NCc2ccco2)cc1	-2	-2	-1	15	2	1	-0.2	3
COc1ccc(CN2CCN(C(=O)c3cccs3)CC2)cc1Br	0	-5	-6	-11	6	0	0.1	-8
COc1ccc(NC(=O)c2cn(-c3ccccc3)nc2-c2cc3ccccc3o2)cc1	-7	-12	-6	-7	6	4	-3.4	2
CN(C)S(=O)(=O)Oc1ccsc1C(=O)Nc1ccc(Cl)c(Cl)c1	14	15	-8	6	8	0	0.4	3
Cc1ccc(C(=O)c2cc([N+](=O)[O-])ccc2N2CCOCC2)c(C)c1	-8	-3	-9	-4	84*	76*	1.1	34*
O=C(O)CSc1ccccc1C(=O)O	-19	-4	-11	-20	6	2	0.3	7
CSc1nc(N)nc(SCC(=O)Nc2ccc(Cl)cc2)c1C#N	14	-17	-32	28	4	-4	-1.8	-5
Cc1cc(Br)ccc1NCc1ccccn1	9	-4	-7	3	7	-1	0.1	-4
Cc1ccccc1OCC(=O)NC(=S)Nc1ccc(S(=O)(=O)NC2CCCCC2)cc1	11	-2	-9	27	7	1	0.3	-4
Cc1cc(/C=C(\C#N)C(=O)Nc2ccccc2)c(C)n1-c1cccnc1	3	-15	-4	-8	4	2	0.8	2
CC(=O)Nc1ccc(S(=O)(=O)N2CCN(c3cc4c(cc3[N+](=O)[O-])n(C)c(=O)n4C)CC2)cc1	13	-13	-7	-7	7	2	2.0	0
COc1ccc(C2=NOC(C(=O)NC(C)(C)C)C2)cc1 (configuration not stated)	-32	-16	5	13	2	-4	23*	0
The list continues:
SMILES	NPY2 pot ag	S1P4 antag	RBBP9 inh	NPY1 pot ag	BaF3 parental	Ba/F3 V617F tox	S1P4 agonist	NPY-Y1 antag
Cc1ccc(C(=O)C(OC(=O)CCC(=O)Nc2cccc(C)c2)c2ccccc2)cc1 (configuration not stated)	0	-15	-4	14	4	-2	2.4	1
O=C(NCCNC(=O)c1cc(OCC(F)(F)F)ccc1OCC(F)(F)F)Nc1ccc(OC(F)(F)F)cc1	-10	9	-6	-10	4	1	0.2	-9
O=C(NN=c1c(=O)c2ccccc2c1=O)c1ccccc1	10	-3	-12	18	12	3	-0.9	-3
CCc1ccc(OCCCOc2ccc(C=O)cc2)cc1	8	-1	-10	10	102*	1	0.8	-2
COC(=O)COc1ccsc1C(=O)OC	-9	-13	5	0	6	-4	-2.1	3
CCC(C)NC(=O)C(NS(=O)(=O)c1cccc2nsnc12)c1ccccc1 (configuration not stated)	18	-16	3	11	0	-4	-1.5	-2
O=S(=O)(Nc1ccc(-c2nc3cccnc3s2)cc1)c1cccs1	-5	1	-11	8	9	-4	0.8	1
CCOC(=O)c1sc(-c2ccc(Br)cc2)cc1N	8	-17	-6	-10	7	-2	0.3	1
CCOC(=O)C1=C(C)NC(SCC(N)=O)=C(C#N)C1c1ccccc1 (configuration not stated)	8	-8	-8	-30	3	0	-0.8	1
CCC(CC)c1nnc(NC(=O)C2COc3ccccc3O2)s1 (configuration not stated)	-4	-10	-6	-13	7	-3	-1.1	2
Clc1ccc(-c2nnc(-c3ccco3)o2)cc1	-6	-1	-5	-7	-2	-2	0.4	7
COc1ccc(-n2c(C)n[nH]c2=O)cc1	-8	-2	-2	-6	11	5	-0.8	4
O=C(Nc1ccc(-c2cn3ccccc3n2)cc1)c1ccc(Cl)cc1	-15	-15	-2	-14	3	3	-0.9	-2
CCC(C)NC(=O)C1CCN(S(=O)(=O)c2cccnc2)CC1 (configuration not stated)	4	-8	-4	1	3	-4	-0.5	2
COc1ccc(C(=O)Nc2cc(Cl)ccc2OC(=O)c2ccc(OC)cc2)cc1	-8	-23	-10	-29	3	-1	2.2	2
CSc1ncc(C(=O)O)c(C)n1	-1	-7	10	3	6	-3	-1.5	8
CC(C)(C)N(NC(=O)Nc1ccc(Cl)c(Cl)c1)C(=O)c1ccccc1	15	-16	-6	10	5	-3	-0.3	1
COc1ccc(NC(=O)CSc2ncnc3c2cnn3Cc2ccccc2)cc1	-4	-6	-6	-14	2	-2	4.5	2
CN=C(Nc1cc(C)nn1-c1ccccc1)c1ccccc1F	-6	-15	-2	4	0	1	0.1	-5
O=C(Nc1ccc(Oc2ccccc2)cc1)C1CCN(c2c3c(nc4ncnn24)CCC3)CC1	-18	-12	1	12	14	2	-0.7	0

Compound profiles (already shown). Order of screens: NPY2 pot ag | S1P4 antag | RBBP9 inh | NPY1 pot ag | BaF3 parental | Ba/F3 V617F tox | S1P4 agonist | NPY-Y1 antag
CCC(C)NC(=O)C(NS(=O)(=O)c1cccc2nsnc12)c1ccccc1 (configuration not stated) as listed: 18 | -16 | 3 | 11 | 0 | -4 | -1.5 | -2
CSc1ncc(C(=O)O)c(C)n1 as listed: -1 | -7 | 10 | 3 | 6 | -3 | -1.5 | 8
COC(=O)COc1ccsc1C(=O)OC as listed: -9 | -13 | 5 | 0 | 6 | -4 | -2.1 | 3
CC(C)(C)N(NC(=O)Nc1ccc(Cl)c(Cl)c1)C(=O)c1ccccc1 as listed: 15 | -16 | -6 | 10 | 5 | -3 | -0.3 | 1
Clc1ccc(-c2nnc(-c3ccco3)o2)cc1 as listed: -6 | -1 | -5 | -7 | -2 | -2 | 0.4 | 7
